Screening data (PubChem)
TRPV1 PAM: potentiators of human vanilloid receptor 1 (TRPV1); AID 540277; actives 0.02% (n = 320,000); potentiation, % at 8.33 µM; Q8NER1; TRPV1-expressing cells, Fluo-8 calcium influx, capsaicin EC20 potentiation; host cell line not named in the record; control for the full effect not named in the record; active means potentiation above 80%; inconclusive means 30% to 80%; inactive means below 30%; further: 0% is about no effect
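TRPV1-expressing cells were cultured overnight at 35.5C and loaded with Fluo-8 calcium dye for 40 to 90 min at room temperature. After a 10 s baseline, compound was added and calcium influx was read kinetically for 3 min (ex 480/em 520 nm).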
TRPML1 agonist: activates the human TRPML1 channel. Q9GZU1. TRPML1-expressing cells, Ca2+ dye fluorescence, FDSS; host cell line not named in the record; reference of the full effect not given here. activation, % (no concentration beside the values). actives 0.12% (n = 410,000); in the data active = activation above about 50%; inconclusive = about 30% to 50%; inactive = below about 30%; further: 0% is about no effect; the text of the record puts the active cut at 80%
Target sequence (Q9GZU1 whole entry, looked up): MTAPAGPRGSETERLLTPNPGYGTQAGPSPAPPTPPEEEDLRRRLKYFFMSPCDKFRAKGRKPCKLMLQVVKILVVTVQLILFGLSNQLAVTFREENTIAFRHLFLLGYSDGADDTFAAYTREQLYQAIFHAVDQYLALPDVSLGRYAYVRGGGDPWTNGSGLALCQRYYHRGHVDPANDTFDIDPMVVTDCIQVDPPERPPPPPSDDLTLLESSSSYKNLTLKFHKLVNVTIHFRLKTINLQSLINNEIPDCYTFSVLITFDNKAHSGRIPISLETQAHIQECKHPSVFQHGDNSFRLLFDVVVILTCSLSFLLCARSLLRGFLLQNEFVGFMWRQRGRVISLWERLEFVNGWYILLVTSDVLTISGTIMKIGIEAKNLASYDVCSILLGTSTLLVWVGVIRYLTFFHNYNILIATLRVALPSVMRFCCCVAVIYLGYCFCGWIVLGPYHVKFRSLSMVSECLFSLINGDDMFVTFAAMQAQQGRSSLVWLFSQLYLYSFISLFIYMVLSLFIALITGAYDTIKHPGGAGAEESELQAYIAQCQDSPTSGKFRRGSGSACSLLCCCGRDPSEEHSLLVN
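Tetracycline-induced TRPML1-DL cells are seeded and incubated overnight before loading with a no-wash Ca2+ dye and quencher. Agonist activity is taken from the 110 s fluorescence read following compound pin-transfer on an FDSS, before EC80 54-4 challenge.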
TRPML1 blocker: blocks the human TRPML1 channel; Q9GZU1; TRPML1-inducible cells, Ca2+ dye fluorescence, FDSS; active compounds read low; inhibition of EC80 agonist-evoked calcium signal; activity change, negative = inhibition, % (no concentration beside the values); actives 0.02% (n = 390,000); AID 624415; in the data active means activity change below about -50%; inconclusive means about -30% to -50%; inactive means above about -30%;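 further: stimulus is agonist 54-4 at its EC80 concentration; on the % scale 0 is the no-effect control and ±100 the full control effect; compound concentration not given in the record; the text of the record puts the active cut at -80%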
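TRPML1-DL cells, Tet-induced overnight (~16 h, 37 °C) at 1,500 cells/well, were loaded with Ca8 no-wash dye plus quencher for 45-90 min at room temperature. Compounds were pinned during FDSS kinetic reading; agonist 54-4 at EC80 (4 uM final) then added.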
Six1-Eya2 inh: inhibitors of human Six1/Eya2 interaction; AlphaScreen GST-Six1/His-Eya2 binding, biochemical; active compounds read low; control for the full effect not named in the record; AID 651725; Q15475+O00167; actives 0.56% (n = 360,000); activity change, % (no concentration beside the values); in the data active = activity change below about -65%; inconclusive = about -30% to -65%; inactive = above about -30%; further: on the % scale 0 is the no-effect control and ±100 the full control effect
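AlphaScreen luminescence read after one hour at 37 °C in darkness. Pin-transferred compounds met GST-Six1 and His-Eya2 protein (5X stock 250 nM/500 nM) plus glutathione donor and Ni-chelate acceptor beads (5X, 50 ug/mL).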
CtBP-E1A inh: blocks the CtBP interaction with E1A | AlphaScreen GST-E1A/His-CtBP binding, 1536-well; active compounds read low; control for the full effect not named in the record | activity change, % (test concentration not listed) | actives 0.49% (n = 340,000) | AID 651724; in the data active means activity change below about -65%; inconclusive means about -30% to -65%; inactive means above about -30%; further: on the % scale 0 is the no-effect control and ±100 the full control effect
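In 5 uL wells, 23 nL compound meets equimolar GST-E1A and His-CtBP (5X stock 125 nM each) for 2 h, 37 °C. Beads (5X, 50 ug/mL) then 1 h, 37 °C, dark.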
D2 PAM: human D2 receptor positive allosteric modulation. P14416. DiscoveRx D2 beta-arrestin cells, luminescence, 90 min; 100% = 57 uM dopamine signal. potentiation, % (test concentration not listed). actives 0.23% (n = 360,000). AID 624464; active = potentiation of 50% or more; inconclusive = 30% to 50%; inactive = 30% or less;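 further: compound concentration not given in the record; tested on top of an EC20 dose of dopamine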
Target sequence (P14416 whole entry, looked up): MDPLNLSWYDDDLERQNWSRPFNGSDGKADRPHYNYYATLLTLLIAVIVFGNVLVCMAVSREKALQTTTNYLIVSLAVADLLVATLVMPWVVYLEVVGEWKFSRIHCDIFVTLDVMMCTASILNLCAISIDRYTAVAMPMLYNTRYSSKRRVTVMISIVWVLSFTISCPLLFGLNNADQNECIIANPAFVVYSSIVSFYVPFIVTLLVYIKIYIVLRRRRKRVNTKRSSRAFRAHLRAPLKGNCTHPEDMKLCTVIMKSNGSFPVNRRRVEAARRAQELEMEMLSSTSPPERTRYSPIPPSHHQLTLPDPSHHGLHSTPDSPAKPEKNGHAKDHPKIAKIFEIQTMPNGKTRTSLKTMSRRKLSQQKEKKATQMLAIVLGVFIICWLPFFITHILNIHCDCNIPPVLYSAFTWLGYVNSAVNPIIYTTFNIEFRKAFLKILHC
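PathHunter D2 cells, attached overnight at 37 deg C, received compound in DMSO plus dopamine at EC20 (50 nM final) for 90 min at 37 deg C. Beta-arrestin recruitment was read as luminescence after 1 h with detection reagent at ambient temperature.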
* hit, by the source's call; ? = inconclusive; . = no result given. Compounds were not picked by outcome. About 0.95% of those tested had a hit in this group.

Molecule | TRPV1 PAM | TRPML1 agonist | TRPML1 blocker | Six1-Eya2 inh | CtBP-E1A inh | D2 PAM
CC(C)(C)c1cc(=O)n(-c2ccccc2)[nH]1 | -12 | 2.1 | 13 | -8 | ? | 9
CCCCN(C(=O)CSCc1ccc(C)cc1)c1c(N)n(Cc2ccccc2)c(=O)[nH]c1=O | . | -0.4 | 5 | -15 | -16 | -7
Cc1ccc(C(=O)NCCc2nc3ccccc3[nH]2)cc1[N+](=O)[O-] | 12 | 0.0 | -2 | -2 | 8 | -16
O=C(NC1CC1)c1ccc(S(=O)(=O)NC2CCCCCC2)cc1 | 12 | -0.6 | -10 | 1 | 3 | -7
Cc1c(C(=O)N2CCN(C(c3ccccc3)c3ccccc3)CC2)oc2ccccc12 | 0 | 0.2 | -1 | -5 | . | -6
Cc1cc(C(N)=O)nn1-c1c(Cl)cc(Cl)cc1Cl | . | -0.8 | 4 | 4 | . | -19
O=C(CSc1nnc(Cc2cccs2)n1C1CC1)NC1CCS(=O)(=O)C1 (configuration not stated) | -9 | -0.5 | 4 | 6 | 6 | -1
O=c1c2[nH]cnc2n(-c2cccc(F)c2)c(=O)n1Cc1ccccc1 | -9 | 2.6 | -12 | 2 | -2 | -12

The list goes on:
Molecule | TRPV1 PAM | TRPML1 agonist | TRPML1 blocker | Six1-Eya2 inh | CtBP-E1A inh | D2 PAM
CCN(CC)C(=O)CSc1ncnc2sc(C)c(C)c12 | -3 | 0.6 | 24 | 0 | 9 | -5
[O-]/[N+](=C\c1ccncc1)c1ccccc1 | 10 | -0.2 | 3 | 2 | 7 | -2
COc1ccc2oc(CS(=O)c3ccccc3)c(C(=O)O)c2c1 (configuration not stated) | ? | -0.4 | -9 | 4 | . | -5
CC1CCc2cc(F)ccc2N1C(=O)c1cccs1 (configuration not stated) | 7 | 1.7 | 65 | 4 | 2 | -5
Cc1ccc(OCC(=O)NNC(=O)C(=O)NC(C)(C)C)cc1 | ? | 0.3 | -9 | 12 | 5 | -11
O=[N+]([O-])c1cccc(N=NNc2cccc([N+](=O)[O-])c2)c1 | . | -0.8 | -2 | -4 | -9 | -10
COc1ccc(NC(=O)C23CCC(C)(C(=O)C2)C3(C)C)cc1 (configuration not stated) | -5 | -0.6 | 10 | 7 | 7 | -6
Cc1ccc(NC(=O)C(c2ccc(Cl)cc2Cl)N2CCCC2)cc1 (configuration not stated) | 2 | 0.6 | -20 | -8 | -2 | -14

The results go on.
Molecule | TRPV1 PAM | TRPML1 agonist | TRPML1 blocker | Six1-Eya2 inh | CtBP-E1A inh | D2 PAM
Nc1nc(NCc2ccccc2)nc(-c2ccccc2)n1 | -18 | 0.9 | 13 | -2 | 5 | -11
O=c1cc(O)cc2n1CCC2 | . | -0.6 | . | -6 | -21 | -3
Cc1ccc(S(=O)(=O)N2CCOCC2)cc1C(=O)Nc1nc(-c2ccccn2)cs1 | . | 0.0 | -4 | -85* | 3 | 16
CCOc1ccc(CO/N=C/c2c(C)[nH]c(=O)[nH]c2=O)cc1 | 5 | 0.6 | 6 | -4 | -1 | -2
O=C(NNC(=O)C(Cl)Cl)c1cnn(-c2ccccc2)c1C(F)(F)F | 5 | 0.6 | 5 | 28 | . | 2
COc1ccc(C(=O)C(C)Sc2nnc(C3CC3)n2C2CC2)cc1 (configuration not stated) | 6 | -0.4 | 4 | -15 | -24 | -1
CC(C(=O)c1c[nH]c(C(=O)N=CN(C)C)c1)c1ncc(C(F)(F)F)cc1Cl (configuration not stated) | ? | 0.7 | -16 | 0 | 0 | -2
COc1ccc(C(=O)C(CN2CCCC2)c2ccccc2)cc1 (configuration not stated) | 14 | 0.0 | 2 | 0 | 9 | -18

The results go on:
Molecule | TRPV1 PAM | TRPML1 agonist | TRPML1 blocker | Six1-Eya2 inh | CtBP-E1A inh | D2 PAM
COc1ccc(CCCC(=O)N/N=C/c2ccc(C)cc2)cc1 | -11 | 0.8 | -14 | -1 | . | -7
O=C(CSc1nnc(CNC(=O)c2cccs2)o1)Nc1ccc(Cl)cc1 | 1 | -1.0 | -4 | 1 | 1 | -14
O=C(c1cccc([N+](=O)[O-])c1)c1ccc2c(c1)OCCOCCOCCO2 | -7 | 0.1 | 1 | 6 | 3 | 9
O=C(NCCC(=O)N1CCN(c2ccccn2)CC1)c1ccc(Cl)cc1 | . | 1.3 | 28 | 2 | 7 | -20
Nc1nnc(SCC(=O)Nc2ccc3nc(SCC(=O)Nc4ccccc4)sc3c2)s1 | 7 | 2.2 | 1 | -8 | -7 | 3
O=C(O)c1ccc2c(=O)n3c(nc2c1)/C(=C/c1cccc(O)c1)CC3 | 4 | . | . | -2 | -5 | -2
CCO[C@H]1OC(C(=O)N2CCOCC2)=C[C@@H](C)[C@@H]1CCCO | 18 | -0.2 | -9 | 9 | -24 | -13
C=CCn1c(SC(C)C(=O)NCC2CCCO2)nnc1-c1ccc(OC)cc1 (configuration not stated) | . | -1.4 | 10 | 1 | . | 2

Continued:
Molecule | TRPV1 PAM | TRPML1 agonist | TRPML1 blocker | Six1-Eya2 inh | CtBP-E1A inh | D2 PAM
COC(=O)c1c(NC(=O)CSc2ncnc3c2cnn3-c2ccccc2Cl)sc2c1CCCC2 | -8 | 0.6 | 3 | -12 | -6 | 10
Fc1ccccc1CN1CCC(Cc2ccccc2)CC1 | 4 | 0.9 | 8 | 12 | -12 | -9
COc1ccc(S(=O)(=O)N(C)CC(=O)NC2CCCCC2)cc1OC | -5 | 0.3 | -4 | 3 | -2 | -6
COc1ccc(/C=C2/SC(=S)N(CCCC(=O)Nc3ccc(O)cc3)C2=O)cc1 | -4 | 1.1 | 4 | -21 | -28 | -7
CC(=O)/C(=N\Nc1ccc(Cl)cc1Cl)Sc1nnc(-c2ccccc2)n1-c1ccccc1 | -6 | 2.3 | -3 | -4 | 6 | 9
CCc1ccccc1OCC(=O)Nc1ccc2c(c1)OCCO2 | -8 | 2.0 | -7 | 9 | 5 | -2
O=C(Cc1ccccc1)c1c[nH]c(C(=O)C(Cl)(Cl)Cl)c1 | 1 | -0.5 | -10 | 3 | 0 | -2
CC(OC(=O)C1=NN(c2ccccc2)C(=O)CC1)C(=O)NC1CCCCC1C (configuration not stated) | -6 | -0.5 | 12 | 5 | 6 | -1

Further structures follow:
Molecule | TRPV1 PAM | TRPML1 agonist | TRPML1 blocker | Six1-Eya2 inh | CtBP-E1A inh | D2 PAM
O=C(NCC1CCCO1)C(c1ccncc1)N(Cc1ccc(F)cc1)C(=O)CN1C(=O)c2ccccc2S1(=O)=O (configuration not stated) | 5 | 0.8 | -3 | 6 | -2 | -10
O=C(CSc1nn(-c2ccccc2)c(=S)s1)Nc1ncccn1 | -15 | 1.2 | -4 | -2 | 0 | -24
Cc1nc2ccccn2c1C(=O)NNS(=O)(=O)c1ccc(C(C)(C)C)cc1 | 14 | -0.5 | -9 | -3 | -4 | -4
COc1ccccc1-c1sc2cc3c(cc2c1C#Cc1cncn1C)OCO3 | . | 1.5 | 43 | -15 | . | -24
CCc1ccc(/C=C2\SC(=S)N(CCCC(=O)N3CCCC3)C2=O)cc1 | . | 1.6 | 12 | -19 | -13 | -11
COc1ccc(CCn2cnc(=O)c(C#N)c2C)cc1OC | 0 | -0.6 | 13 | -1 | -1 | -2
CN(C)S(=O)(=O)N(CC(=O)N(Cc1ccccc1)Cc1ccccc1)c1ccccc1 | 4 | 0.1 | 16 | -1 | 5 | -8
COC(=O)C(C#N)C(=C1C(=O)CC(C)(C)CC1=O)c1ccc(O)cc1 (configuration not stated) | 8 | -0.3 | 6 | 6 | 1 | 0

(cont.)
Molecule | TRPV1 PAM | TRPML1 agonist | TRPML1 blocker | Six1-Eya2 inh | CtBP-E1A inh | D2 PAM
COc1ccc(C(=O)N2CC(c3ccc(Cl)cc3)CC2=O)cc1 (configuration not stated) | . | -0.7 | -6 | 5 | . | -19
C(#CC12CC3CC(CC(C3)C1)C2)CN1CCOCC1 | -22 | -0.2 | -5 | -7 | 1 | -3
O=C(NCc1n[nH]c(=S)n1-c1ccc(Br)cc1)c1cccs1 | 17 | 0.8 | -13 | -1 | 1 | -16
O=c1[nH]nc(Cc2ccccc2)c2ccccc12 | 19 | 0.1 | 11 | -1 | 1 | -4
CC1CN(C(=O)/C=C/c2ccc([N+](=O)[O-])s2)CC(C)O1 (configuration not stated) | 9 | 0.6 | 1 | -12 | -3 | -1
O=C(O)c1ccc(Nc2ccc3nonc3c2[N+](=O)[O-])cc1 | -9 | -0.2 | 21 | -8 | -1 | 5
COc1ccc(-c2nc(CS(=O)CC(=O)NCCCN3CCCC(C)C3)c(C)o2)cc1OC (configuration not stated) | 1 | -0.9 | 9 | 0 | 5 | -7
COc1cc(C(=O)OCCN2CCOCC2)ccc1O | -25 | -0.4 | -5 | 3 | 4 | 20

Continued:
Molecule | TRPV1 PAM | TRPML1 agonist | TRPML1 blocker | Six1-Eya2 inh | CtBP-E1A inh | D2 PAM
CC1(C(=O)NS(=O)(=O)c2ccc(Br)cc2)CCN1C(=O)Cc1cccs1 (configuration not stated) | . | -0.1 | . | 5 | -17 | -8
CCCCN(C(=O)c1ccc(N2CCCC2=O)cc1)c1c(N)n(CCC)c(=O)[nH]c1=O | -3 | -0.5 | 10 | -15 | . | -1
Cc1onc(-c2ccccc2Cl)c1C(=O)N1CCN(c2ccc(F)cc2)CC1 | 3 | -0.1 | -1 | -4 | 7 | -9
COc1ccccc1CNC(=O)C1CCCCN1S(=O)(=O)c1ccccc1 (configuration not stated) | 8 | 1.1 | 2 | -1 | -8 | -3
CC(=O)N1CCN(c2ccccc2NC(=S)NC(=O)c2cc3ccccc3o2)CC1 | -14 | -0.6 | 43 | -21 | -23 | 2
Cn1c(NCc2cccnc2)nc2cc(-c3ccc(C(=O)N4CCOCC4)cc3)sc2c1=O | . | -0.5 | . | 1 | -2 | -26
Cc1ccc(S(=O)(=O)N2CCC(C(=O)N[C@@H](C)C(=O)NCC3CCCO3)CC2)cc1 (some centres not stated) | ? | 0.6 | 10 | 5 | -6 | -5
C=CCOC(=O)c1[nH]c2c(c1C)C(=O)CC(c1ccco1)C2 (configuration not stated) | -9 | 2.3 | -2 | -13 | -3 | -4

Continued:
Molecule | TRPV1 PAM | TRPML1 agonist | TRPML1 blocker | Six1-Eya2 inh | CtBP-E1A inh | D2 PAM
COC(=O)c1ccc(Cn2nc(-c3cc(C)ccc3C)ccc2=O)cc1 | -3 | 0.5 | -6 | 8 | 5 | 0
COCCNC(=O)c1sc2ncn(CC(=O)Nc3ccc(C)c(Cl)c3)c(=O)c2c1C | -11 | 0.4 | -13 | 10 | . | -14
CSCCC(C(=O)OCC(=O)c1ccc(C)c(C)c1)N1C(=O)c2cc(Cl)c(Cl)cc2C1=O (configuration not stated) | 25 | -0.7 | -25 | -10 | -24 | -23
COc1ccc(-c2noc(CN3CCCCC3c3nccn3C)n2)cc1 (configuration not stated) | -11 | . | . | -2 | 0 | -6

Compound profiles, as listed above.
CSCCC(C(=O)OCC(=O)c1ccc(C)c(C)c1)N1C(=O)c2cc(Cl)c(Cl)cc2C1=O (configuration not stated) is listed with TRPV1 PAM: 25; TRPML1 agonist: -0.7; TRPML1 blocker: -25; Six1-Eya2 inh: -10; CtBP-E1A inh: -24; D2 PAM: -23
COCCNC(=O)c1sc2ncn(CC(=O)Nc3ccc(C)c(Cl)c3)c(=O)c2c1C is listed with TRPV1 PAM: -11; TRPML1 agonist: 0.4; TRPML1 blocker: -13; Six1-Eya2 inh: 10; CtBP-E1A inh: .; D2 PAM: -14
